Vaccinia inh: blocks a specific stage of Vaccinia orthopoxvirus infection, primary screen, cell-based, single point | Vaccinia-infected cells, mCherry/Venus stage reporter fluorescence; stronger effect = lower value; some inactives read as strong as hits | activity change (mCherry), % (concentration not given with the values) | 89,000 tested, 0.01% active;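 active = mCherry past -33% and 40 or more points under the early reporter, replicates agreeing; inconclusive = past -33% without that gap or agreement; tested in A549 cells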;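 note: scaled between vehicle wells and reference inhibitor wells; 23 nL library stock went into each well; one replicate is shown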
Vaccinia inh Venus: further read-out of Vaccinia inh, marked with its call; activity change (Venus), %; measured here: Venus reporter, other viral stage;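 negative = less Venus signal; first of two replicates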
Active calls of the source: *; & = joins results of further samples.

The opening 8 entries, to show the layout:
Results for CCCNC(=O)C[C@H]1CC[C@@H]2[C@H](COC[C@H](O)CN2C(=O)c2cccnc2)O1 ?
Vaccinia inh: 21; Vaccinia inh Venus: 11

What do the screens show for `C[C@@H]1CN([C@H](C)CO)C(=O)Cc2cc(NC(=O)CCCCCC(=O)Nc3ccccc3N)ccc2O[C@@H]1CN(C)S(=O)(=O)c1cn(C)cn1`?
Vaccinia inh: 11; Vaccinia inh Venus: -3

How did C[C@H]1CN([C@@H](C)CO)C(=O)c2cccc(NC(=O)Nc3ccccc3)c2O[C@@H]1CN(C)CC1CC1 do in these assays?
Vaccinia inh: 6; Vaccinia inh Venus: 3

How did COc1ccc(-c2ccc([C@@H]3[C@@H](CO)N4C(=O)CN(Cc5ccc(F)cc5)C[C@@H]34)cc2)cc1 do in these assays?
Vaccinia inh: 17; Vaccinia inh Venus: 3

What do the screens show for `CCC(=O)N(C)C[C@H]1Oc2ncc(-c3ccccc3OC)cc2C(=O)N([C@H](C)CO)C[C@@H]1C`?
Vaccinia inh: 12; Vaccinia inh Venus: 9

What do the screens show for `C[C@@H]1CCCCO[C@H](CN(C)Cc2ccccc2)[C@H](C)CN([C@H](C)CO)C(=O)c2cc(NC(=O)C3CCCCC3)ccc2O1`?
Vaccinia inh: inconclusive

What do the screens show for `CCCNC(=O)N[C@@H]1CC[C@H](CC(=O)NC2CCC2)O[C@@H]1CO`?
Vaccinia inh: 5; Vaccinia inh Venus: 7

What do the screens show for `COc1cccc(C#Cc2ccc([C@H]3[C@@H](C#N)N(C(=O)C4CC4)[C@@H]3CO)cc2)c1`?
Vaccinia inh: -2; Vaccinia inh Venus: 0

Main list, from the start:
Results for CCCNC(=O)C[C@H]1CC[C@@H]2[C@H](COC[C@H](O)CN2C(=O)c2cccnc2)O1 ?
Vaccinia inh: 21; Vaccinia inh Venus: 11

What do the screens show for `C[C@@H]1CN([C@H](C)CO)C(=O)Cc2cc(NC(=O)CCCCCC(=O)Nc3ccccc3N)ccc2O[C@@H]1CN(C)S(=O)(=O)c1cn(C)cn1`?
Vaccinia inh: 11; Vaccinia inh Venus: -3

How did C[C@H]1CN([C@@H](C)CO)C(=O)c2cccc(NC(=O)Nc3ccccc3)c2O[C@@H]1CN(C)CC1CC1 do in these assays?
Vaccinia inh: 6; Vaccinia inh Venus: 3

How did COc1ccc(-c2ccc([C@@H]3[C@@H](CO)N4C(=O)CN(Cc5ccc(F)cc5)C[C@@H]34)cc2)cc1 do in these assays?
Vaccinia inh: 17; Vaccinia inh Venus: 3

What do the screens show for `CCC(=O)N(C)C[C@H]1Oc2ncc(-c3ccccc3OC)cc2C(=O)N([C@H](C)CO)C[C@@H]1C`?
Vaccinia inh: 12; Vaccinia inh Venus: 9

What do the screens show for `C[C@@H]1CCCCO[C@H](CN(C)Cc2ccccc2)[C@H](C)CN([C@H](C)CO)C(=O)c2cc(NC(=O)C3CCCCC3)ccc2O1`?
Vaccinia inh: inconclusive

What do the screens show for `CCCNC(=O)N[C@@H]1CC[C@H](CC(=O)NC2CCC2)O[C@@H]1CO`?
Vaccinia inh: 5; Vaccinia inh Venus: 7

What do the screens show for `COc1cccc(C#Cc2ccc([C@H]3[C@@H](C#N)N(C(=O)C4CC4)[C@@H]3CO)cc2)c1`?
Vaccinia inh: -2; Vaccinia inh Venus: 0

What do the screens show for `C[C@H]1CN([C@@H](C)CO)C(=O)c2cc(NC(=O)CCC(F)(F)F)ccc2O[C@@H]1CN(C)C(=O)Nc1ccccc1`?
Vaccinia inh: 10; Vaccinia inh Venus: 2

How did C[C@@H]1CN([C@@H](C)CO)C(=O)CCCn2nncc2CO[C@H]1CN(C)C(=O)Oc1ccc2ccccc2c1 do in these assays?
Vaccinia inh: -2; Vaccinia inh Venus: 10

Results for C[C@@H]1CN([C@@H](C)CO)S(=O)(=O)c2ccc(C#CC(C)(C)O)cc2O[C@@H]1CN(C)C(=O)C1CCC1 ?
Vaccinia inh: 7; Vaccinia inh Venus: 2

What do the screens show for `C[C@H]1CN([C@@H](C)CO)C(=O)c2cccc(NC(=O)C3CCCCC3)c2O[C@H]1CN(C)Cc1ccc2c(c1)OCO2`?
Vaccinia inh: -6; Vaccinia inh Venus: -7

Results for C[C@@H]1CN([C@@H](C)CO)C(=O)c2cc(-c3ccc(F)cc3)cnc2O[C@@H]1CN(C)C(=O)c1cccnc1 ?
Vaccinia inh: 19; Vaccinia inh Venus: 4

How did C[C@H](CO)N1C[C@H](C)[C@H](CN(C)Cc2ccccc2)Oc2ncc(/C=C/c3ccccc3)cc2C1=O do in these assays?
Vaccinia inh: inconclusive

What do the screens show for `COc1ccc(NC(=O)N(C)C[C@@H]2Oc3ccc(NC(=O)Nc4ccc(C(F)(F)F)cc4)cc3CC(=O)N([C@@H](C)CO)C[C@@H]2C)cc1`?
Vaccinia inh: 4; Vaccinia inh Venus: 2

How did CO[C@@H]1CN(C)C(=O)c2cc(NC(=O)C3CC3)ccc2OC[C@@H](C)N(CCC(F)(F)F)C[C@@H]1C do in these assays?
Vaccinia inh: 0; Vaccinia inh Venus: 11

Results for C[C@@H]1CN([C@@H](C)CO)C(=O)Cc2cc(NC(=O)Nc3ccc(C(F)(F)F)cc3)ccc2O[C@@H]1CN(C)Cc1ccc(-c2ccccc2)cc1 ?
Vaccinia inh: -10; Vaccinia inh Venus: 6

How did COc1ccccc1NC(=O)Nc1ccc2c(c1)OC[C@@H](C)N(Cc1ccccc1C(=O)O)C[C@@H](C)[C@H](OC)CN(C)C2=O do in these assays?
Vaccinia inh: -1; Vaccinia inh Venus: -5

How did C[C@@H]1CCCCO[C@@H](CN(C)Cc2ccc(C(F)(F)F)cc2)[C@@H](C)CN([C@H](C)CO)C(=O)c2cc(NS(=O)(=O)c3ccccc3)ccc2O1 do in these assays?
Vaccinia inh: inconclusive

How did C[C@@H](NC(=O)C[C@H]1CC[C@H]2[C@@H](COC[C@@H](O)CN2Cc2ccc(C(F)(F)F)cc2)O1)c1ccccc1 do in these assays?
Vaccinia inh: -23; Vaccinia inh Venus: -19

How did COc1ccc(S(=O)(=O)N(C)C[C@H]2Oc3ccc(NC(=O)Nc4ccc5c(c4)OCO5)cc3CC(=O)N([C@@H](C)CO)C[C@H]2C)cc1 do in these assays?
Vaccinia inh: -25; Vaccinia inh Venus: -10

Results for COc1ccc(NC(=O)N2CCCCN3[C@@H](CO)[C@@H](c4ccc(C#Cc5ccccn5)cc4)[C@@H]3C2)cc1 ?
Vaccinia inh: -1; Vaccinia inh Venus: -8

Results for C[C@H](NC(=O)C[C@@H]1C[C@@H]2c3cc(NS(=O)(=O)c4ccc(F)cc4)ccc3O[C@@H]2[C@@H](CO)O1)c1ccccc1 ?
Vaccinia inh: 1; Vaccinia inh Venus: 4

What do the screens show for `C[C@@H]1CN([C@@H](C)CO)C(=O)c2ccccc2-c2ccccc2CO[C@H]1CN(C)C(=O)Nc1ccccc1`?
Vaccinia inh: 17; Vaccinia inh Venus: -1

Results for CS(=O)(=O)N1CC(=O)N2[C@@H](CO)[C@@H](c3ccc(Br)cc3)[C@@H]2C1 ?
Vaccinia inh: -7; Vaccinia inh Venus: 4

How did C[C@@H]1CN([C@H](C)CO)C(=O)c2cc(NC(=O)Nc3ccc4c(c3)OCO4)ccc2O[C@@H]1CN(C)Cc1ccncc1 do in these assays?
Vaccinia inh: 16; Vaccinia inh Venus: -1

What do the screens show for `C[C@H]1CN([C@@H](C)CO)S(=O)(=O)c2ccc(-c3cccc(F)c3)cc2O[C@@H]1CN(C)C`?
Vaccinia inh: -5&-20; Vaccinia inh Venus: -6&-15

What do the screens show for `CN(C)C(=O)C[C@H]1C[C@@H]2c3cc(NC(=O)NC4CCCC4)ccc3O[C@@H]2[C@H](CO)O1`?
Vaccinia inh: 6; Vaccinia inh Venus: 2

Results for C[C@H]1CN([C@@H](C)CO)C(=O)c2cccc(NS(=O)(=O)c3ccccc3)c2O[C@H]1CN(C)Cc1ccc(-c2ccccc2)cc1 ?
Vaccinia inh: inconclusive

Results for CO[C@H]1CN(C)C(=O)c2cc(NC(C)=O)ccc2OC[C@@H](C)N(CC2CC2)C[C@H]1C ?
Vaccinia inh: 7; Vaccinia inh Venus: 11

How did CCCC#Cc1ccc([C@H]2[C@@H](CO)N(S(C)(=O)=O)[C@H]2C#N)cc1 do in these assays?
Vaccinia inh: 11; Vaccinia inh Venus: 5

How did Cc1noc(C)c1S(=O)(=O)N(C)C[C@@H]1OCCCC[C@H](C)Oc2ccc(NS(=O)(=O)c3cn(C)cn3)cc2C(=O)N([C@@H](C)CO)C[C@H]1C do in these assays?
Vaccinia inh: 7; Vaccinia inh Venus: -10

Results for COc1cc(CN2CC3(CCN(C(=O)CN4CCOCC4)CC3)c3c(n(C)c4cc(OC)ccc34)[C@H]2CO)cc(OC)c1 ?
Vaccinia inh: 9; Vaccinia inh Venus: 7

How did COc1ccc(S(=O)(=O)Nc2ccc3c(c2)C(=O)N([C@@H](C)CO)C[C@H](C)[C@@H](CN(C)C(=O)C2CCCCC2)OCCCC[C@@H](C)O3)cc1 do in these assays?
Vaccinia inh: inconclusive

Results for C[C@@H]1CN([C@H](C)CO)C(=O)CCCn2nncc2CO[C@@H]1CN(C)C(=O)Nc1ccc(F)cc1 ?
Vaccinia inh: 22; Vaccinia inh Venus: 15

Results for C[C@H]1CN([C@@H](C)CO)C(=O)Cc2cc(NC(=O)NC3CCCCC3)ccc2O[C@H]1CN(C)C(=O)Nc1ccc2c(c1)OCO2 ?
Vaccinia inh: 4; Vaccinia inh Venus: 0

How did CNC[C@@H]1OCc2cnnn2CCCC(=O)N([C@@H](C)CO)C[C@H]1C do in these assays?
Vaccinia inh: 11&1; Vaccinia inh Venus: 11&2

Results for O=C(Cc1ccccn1)N1CCCCN2[C@H](CO)[C@@H](c3ccc(-c4ccccc4F)cc3)[C@H]2C1 ?
Vaccinia inh: -9; Vaccinia inh Venus: -12

How did C[C@@H]1CN([C@H](C)CO)S(=O)(=O)c2ccc(C#Cc3cccnc3)cc2O[C@H]1CN(C)C(=O)CN(C)C do in these assays?
Vaccinia inh: -2; Vaccinia inh Venus: -12

What do the screens show for `O=C(C[C@H]1CC[C@H]2[C@@H](COC[C@H](O)CN2S(=O)(=O)c2ccccc2)O1)N1CCOCC1`?
Vaccinia inh: 8; Vaccinia inh Venus: 7

What do the screens show for `COc1ccc(NC(=O)Nc2ccc3c(c2)C(=O)N([C@@H](C)CO)C[C@@H](C)[C@H](CN(C)C(=O)Nc2ccc(C(F)(F)F)cc2)OCCCC[C@@H](C)O3)cc1`?
Vaccinia inh: -19; Vaccinia inh Venus: -19

What do the screens show for `C[C@H](CO)N1C[C@H](C)[C@@H](CN(C)CC2CC2)Oc2cc(-c3cccc(C#N)c3)ccc2S1(=O)=O`?
Vaccinia inh: -12; Vaccinia inh Venus: -12

Results for O=C(C[C@H]1CC[C@@H]2[C@H](COC[C@@H](O)CN2C(=O)Nc2ccc(F)cc2)O1)NCC1CC1 ?
Vaccinia inh: 1; Vaccinia inh Venus: 4

How did C[C@@H]1CN([C@H](C)CO)C(=O)c2cc(NC(=O)CCCCCC(=O)Nc3ccccc3N)ccc2O[C@H]1CN(C)Cc1ccc(-c2ccccc2)cc1 do in these assays?
Vaccinia inh: -34; Vaccinia inh Venus: -26

How did Cc1noc(C)c1NC(=O)Nc1ccc2c(c1)C(=O)N([C@@H](C)CO)C[C@@H](C)[C@@H](CN(C)C(=O)Nc1ccccc1)OCCCC[C@@H](C)O2 do in these assays?
Vaccinia inh: 21; Vaccinia inh Venus: 5

Results for O=S(=O)(NCC[C@@H]1CC[C@H](NS(=O)(=O)c2ccccc2Cl)[C@H](CO)O1)c1ccc(Cl)cc1 ?
Vaccinia inh: -23; Vaccinia inh Venus: -13

What do the screens show for `C[C@H]1CN([C@@H](C)CO)C(=O)c2cc(NC(=O)Nc3ccccc3)ccc2O[C@@H]1CN(C)S(=O)(=O)c1ccccc1`?
Vaccinia inh: 4; Vaccinia inh Venus: 0

Results for COCC(=O)Nc1ccc2c(c1)[C@H]1C[C@H](CC(=O)NCc3ccncc3)O[C@H](CO)[C@H]1O2 ?
Vaccinia inh: -5; Vaccinia inh Venus: -8

How did CCCC(=O)Nc1ccc2c(c1)C(=O)N(C)C[C@@H](OC)[C@H](C)CN(C(=O)c1cccnc1)[C@H](C)CO2 do in these assays?
Vaccinia inh: 6; Vaccinia inh Venus: 14

Results for C[C@@H]1CN([C@H](C)CO)C(=O)c2ccccc2-c2ccccc2CO[C@H]1CN(C)C(=O)Nc1ccccc1C(F)(F)F ?
Vaccinia inh: 4; Vaccinia inh Venus: 2

What do the screens show for `COc1ccc(CN(C)C[C@@H]2OCCCC[C@H](C)Oc3ccc(NC(=O)Nc4ccc5c(c4)OCO5)cc3C(=O)N([C@H](C)CO)C[C@@H]2C)cc1`?
Vaccinia inh: inconclusive

Results for O=C(NC1CCCCC1)N1CC(=O)N2[C@@H](CO)[C@@H](c3ccc(-c4cccnc4)cc3)[C@@H]2C1 ?
Vaccinia inh: 0; Vaccinia inh Venus: -4

What do the screens show for `CC(C)C#Cc1ccc2c(c1)O[C@H](CN(C)Cc1ccccn1)[C@H](C)CN([C@@H](C)CO)S2(=O)=O`?
Vaccinia inh: inconclusive

Results for COc1ccc(CN(C)C[C@H]2Oc3ccc(NC(=O)Cc4cn(C)c5ccccc45)cc3CC(=O)N([C@H](C)CO)C[C@@H]2C)cc1 ?
Vaccinia inh: inconclusive

What do the screens show for `C/C=C/c1cnc2c(c1)C(=O)N([C@@H](C)CO)C[C@H](C)[C@H](CN(C)C(=O)NC1CCCC1)O2`?
Vaccinia inh: 5; Vaccinia inh Venus: 5

Results for Cc1ccc(S(=O)(=O)N(C)C[C@@H]2Oc3ccc(NC(=O)c4ccncc4)cc3C(=O)N([C@@H](C)CO)C[C@@H]2C)cc1 ?
Vaccinia inh: 10; Vaccinia inh Venus: 5

How did O=C(C[C@@H]1CC[C@@H]2[C@H](COC[C@@H](O)CN2Cc2nccs2)O1)NCc1ccc(-c2ccccc2)cc1 do in these assays?
Vaccinia inh: -20; Vaccinia inh Venus: -24

Compound activity: PubChem, Broad Institute

Some of the compounds tested; count on the stated rates, not on these rows.
